From PubChem
2A firefly: Primary qHTS Assay for Foot and Mouth Disease Virus Antivirals against NCGC Sytravon and CBC Compound Libraries: Firefly Luciferase Signal; HEK cells with a luciferase reporter of 2A StopGo recoding; Potency, µM (top dose mostly 57.5 µM), for inactives: at the top dose signal change, negative = less light; 120,000 compounds, 0.23% hits; AID 1745856, 2022; active = well fitted falling curve with a large enough effect; inconclusive = small, poorly fitted or top-dose-only effect; inactive = no such curve, though single readings can be large or run the other way; note: nearly all actives have a fitted effect of over 60% in size; overnight with compound
2A Renilla: Primary qHTS Assay for Foot and Mouth Disease Virus Antivirals against NCGC Sytravon and CBC Compound Libraries: Renilla Luciferase Signal | Potency, µM (highest dose often 57.5 µM), for the others: at the highest dose signal change, negative = less light | 120,000 compounds, 0.32% hits | AID 1745857, 2022 | HEK cells with a luciferase reporter of 2A StopGo recoding; active means well fitted falling curve with a large enough effect; inconclusive means small, poorly fitted or top-dose-only effect; inactive means no such curve, though single readings can be large or run the other way; note: nearly all actives have a fitted effect of over 55% in size; overnight with compound
Numbers without * were called inactive; & = joins results of further samples; [ ] = remark or other dose. % is set by controls: 0 for no effect and ±100 for the full control effect; potency is the fitted concentration of half-maximal effect.

CC(C)c1nn2c(=O)cc(COC(=O)c3ccccc3NC(=O)COc3ccccc3)nc2s1 was read as 2A firefly 8.3% and 2A Renilla -6.5%.
For CCC(=O)N1CCc2cc(S(=O)(=O)NC(C(=O)NCCc3ccc(C)cc3)C(C)C)ccc21 (stereo not given) the results were 2A firefly 0.0% and 2A Renilla -7.9%.
For CCN1C(=O)C(O)(c2c[nH]c3ccccc23)c2ccccc21 (stereo not given) the results were 2A firefly 0.0% and 2A Renilla 10.5%.
`COc1ccc(C)cc1NC(=O)C1CCN(S(=O)(=O)c2cccc3nonc23)CC1` gave 2A firefly inconclusive and 2A Renilla -13.5%.
Cc1ccc(NC(=O)CSc2nc3c([nH]c4ccccc43)c(=O)n2-c2ccccc2)cc1Cl was read as 2A firefly -13.9% and 2A Renilla -9.3%.
For Cc1cc(C)cc(NC(=O)C(c2ccccc2)n2cnc3c2c(=O)n(C)c(=O)n3C)c1 (stereo not given) the results were 2A firefly 31.4%[activator] and 2A Renilla 22.3%.
CC/C=C(/C)C(=O)NC(C)c1ccncc1 (stereo not given) was read as 2A firefly -3.5% and 2A Renilla -8.5%.
Screening CC/C(C)=N/NC(=O)C(c1ccccc1)c1ccccc1 returned 2A firefly 21.3% and 2A Renilla 1.0%.
Screening Fc1cc(CSc2nnc(C3CC3)n2C2CC2)c2ncccc2c1 returned 2A firefly -7.2% and 2A Renilla 35.8%.
For Cc1ccc(C(=O)OCc2cc(=O)n3nc(CC(C)C)sc3n2)cc1 the results were 2A firefly -0.2% and 2A Renilla -6.9%.
NS(=O)(=O)c1ccc(CCNc2ncnc3c2cnn3-c2ccccc2)cc1 was read as 2A firefly 25.3% and 2A Renilla -9.4%.
`COc1ccc(CCC(=O)NCCc2csc(-c3ccc(C(F)(F)F)cc3)n2)cc1` gave 2A firefly -13.3% and 2A Renilla -12.3%.
Screening O=C(c1ccccc1)n1nc(NCc2cccs2)nc1NCc1cccs1 returned 2A firefly 40.4%[activator] and 2A Renilla 22.4%.
`CCn1c(N2CCN(CC(N)=O)CC2)nc2c1c(=O)[nH]c(=O)n2C` gave 2A firefly -1.9% and 2A Renilla -4.9%.
`O=C(c1cnccn1)N(Cc1ccccc1)c1ccccc1` gave 2A firefly 45.9%[activator] and 2A Renilla 26.2%.
Screening CCc1ccc(Cn2c(CNS(=O)(=O)c3ccc([N+](=O)[O-])cc3)nc3cccnc32)cc1 returned 2A firefly 10.4% and 2A Renilla -1.8%.
Screening Oc1ccccc1C=Nc1ccc(Cl)c(C(F)(F)F)c1 returned 2A firefly 2.7% and 2A Renilla -0.8%.
Screening CN(C)S(=O)(=O)c1ccc(Cl)c(NC(=O)COC(=O)c2nn(C)c(=O)c3ccccc23)c1 returned 2A firefly -3.3% and 2A Renilla -7.3%.
Cc1cc(-n2c(C)nc3ccccc3c2=O)ccc1NC(=O)c1ccccc1[N+](=O)[O-] was read as 2A firefly -13.9% and 2A Renilla -15.9%.
`CNC(=O)NC(=O)CSc1nnc(-c2ccncc2)n1CC(F)(F)F` gave 2A firefly 11.7% and 2A Renilla 6.4%.
For CS(=O)(=O)NC1CCCN(C(=O)c2ccc(Cl)cc2F)C1 (stereo not given) the results were 2A firefly -1.2% and 2A Renilla -7.0%.
O=C(OCC(=O)c1ccc[nH]1)c1cccc(S(=O)(=O)Nc2ccc(F)cc2)c1 was read as 2A firefly 6.3% and 2A Renilla 160.8%[activator].
`CCOc1ccc(-c2c(C)nn3c(C)c(C(=O)NC(C)c4ccccc4)cnc23)cc1OCC` (stereo not given) gave 2A firefly 11.1% and 2A Renilla 73.4%[activator].
C#CC(C)(CC)NC(=O)Cn1nnc(-c2ccc(OCc3ccccc3C)cc2)n1 (stereo not given) was read as 2A firefly inconclusive and 2A Renilla inconclusive.
CCOc1cc(/C=C/c2nc3ccccc3o2)ccc1O was read as 2A firefly 193.4%[activator] and 2A Renilla 2.8%.
For Cc1ccc(CN2CCC(CNC(=O)Nc3ccccc3F)CC2)cc1 the results were 2A firefly -12.4% and 2A Renilla -2.8%.
For CC(=O)Nc1ccc(OC/C=C/c2ccccc2)cc1 the results were 2A firefly 197.5%[activator] and 2A Renilla 31.7%[activator].
CCOc1ccccc1C(=O)Nc1nnc(C2CC2)s1 was read as 2A firefly 112.4%[activator] and 2A Renilla -2.5%.
`COc1cc(NC(=O)Nc2cccc(-c3noc(C)n3)c2)cc(OC)c1OC` gave 2A firefly 34.9%[activator] and 2A Renilla 2.0%.
`Cn1c(=O)[nH]c(=O)c2c1nc(N1CCN(c3cccc(Cl)c3)CC1)n2Cc1ccccc1` gave 2A firefly -7.7% and 2A Renilla -12.5%.
Screening COc1ccccc1NC(=O)c1ccc(COc2ccc(C)c(C)c2)o1 returned 2A firefly 29.9% and 2A Renilla -8.0%.
`CN(CC(=O)Nc1cccc(F)c1)C(=O)c1cccc(C(=O)N(C)CC(=O)Nc2cccc(F)c2)n1` gave 2A firefly -13.0% and 2A Renilla -5.8%.
For COc1cc(C2Nc3c(C)cc(C)cc3-c3cc(C)nn32)cc(OC)c1O (stereo not given) the results were 2A firefly 32.4%&0.0% and 2A Renilla 38.6%&0.0%[activator].
Screening CC1CN(C(=O)c2cc(-c3ccco3)[nH]n2)CCO1 (stereo not given) returned 2A firefly 40.6%[activator] and 2A Renilla -2.9%.
Screening C=C(C)Cn1c(Br)nc2c1c(=O)n(C)c(=O)n2C returned 2A firefly 9.1% and 2A Renilla 3.7%.
For Fc1ccc(Nc2nc(-c3cccc(Cl)c3)c3c(n2)-c2ccccc2OC3)c(F)c1 the results were 2A firefly 0.6% and 2A Renilla 8.2%.
COc1ccc2c(CNCCc3ccccc3C)c(C(=O)O)n(Cc3ccccc3C)c2c1 was read as 2A firefly 3.8% and 2A Renilla 33.2%[activator].
`O=C(CSc1nnc2[nH]c(=O)cc(-c3ccccc3)n12)Nc1ccccc1C(F)(F)F` gave 2A firefly -13.6% and 2A Renilla -6.5%.
`CCCNC(=S)NNC(C)=O` gave 2A firefly -17.2% and 2A Renilla 2.4%.
Nc1nnnn1Cc1nnc(SCc2ccccc2Cl)n1-c1ccccc1 was read as 2A firefly 0.1% and 2A Renilla inconclusive.
`Clc1cccc(Cn2c(-c3cncs3)nc3ccccc32)c1` gave 2A firefly 132.2%[activator] and 2A Renilla 23.6%.
Screening CCCCN(C)C(=O)Cn1c(SCC(=O)Nc2ccc(C)c(C)c2)nc2ccccc21 returned 2A firefly -10.9% and 2A Renilla 2.6%.
Screening Clc1ccc(-c2csc(NC3CC3)n2)c(Cl)c1 returned 2A firefly 35.6%[activator] and 2A Renilla inconclusive.
COc1cc2c(cc1OCc1ccccc1)-c1nnc(-c3ccccc3)n1C(C)(C)C2 was read as 2A firefly 15.8% and 2A Renilla 21.2%.
Cc1cc(C(C#N)c2ccc(Cl)cc2)c(Cl)cc1NC(=O)CCCc1ccccc1 (stereo not given) was read as 2A firefly 24.3% and 2A Renilla 0.8%.
O=S(=O)(Nc1ccccc1F)c1ccc(-c2cnc(C3CC3)o2)cc1 was read as 2A firefly 7.8% and 2A Renilla 96.3%[activator].
`Cc1cc(C)c2c(=O)c3c(oc2c1)C(=O)N(Cc1ccco1)C3c1ccc(F)cc1` (stereo not given) gave 2A firefly -10.6% and 2A Renilla 1.8%.
CC1=C/C(=N\Nc2nc(Cl)c(Cl)cc2Cl)CC1 was read as 2A firefly 13.3% and 2A Renilla -3.2%.

Grouped by structure: those above containing an aryl methoxy group (seven)
`COc1ccc(C)cc1NC(=O)C1CCN(S(=O)(=O)c2cccc3nonc23)CC1` gave 2A firefly inconclusive and 2A Renilla -13.5%.
`COc1ccc(CCC(=O)NCCc2csc(-c3ccc(C(F)(F)F)cc3)n2)cc1` gave 2A firefly -13.3% and 2A Renilla -12.3%.
`COc1cc(NC(=O)Nc2cccc(-c3noc(C)n3)c2)cc(OC)c1OC` gave 2A firefly 34.9%[activator] and 2A Renilla 2.0%.
Screening COc1ccccc1NC(=O)c1ccc(COc2ccc(C)c(C)c2)o1 returned 2A firefly 29.9% and 2A Renilla -8.0%.
For COc1cc(C2Nc3c(C)cc(C)cc3-c3cc(C)nn32)cc(OC)c1O (stereo not given) the results were 2A firefly 32.4%&0.0% and 2A Renilla 38.6%&0.0%[activator].
COc1ccc2c(CNCCc3ccccc3C)c(C(=O)O)n(Cc3ccccc3C)c2c1 was read as 2A firefly 3.8% and 2A Renilla 33.2%[activator].
COc1cc2c(cc1OCc1ccccc1)-c1nnc(-c3ccccc3)n1C(C)(C)C2 was read as 2A firefly 15.8% and 2A Renilla 21.2%.

(list continues)
For Cc1nn(Cc2ccccc2)c(C)c1NC(=O)COCc1cc(-c2ccco2)on1 the results were 2A firefly -1.5% and 2A Renilla -5.4%.
`N#C/C(=C/c1ccccc1OC(F)F)c1ccccn1` gave 2A firefly 0.0% and 2A Renilla 8.9%.
For Cc1ccc(NC(=O)C2CCN(c3cnc4ccccc4n3)CC2)cc1F the results were 2A firefly 0.0% and 2A Renilla 0.2%.
Screening Cc1cc(=O)oc2cc(OCC(=O)N3CCc4sccc4C3)ccc12 returned 2A firefly 2.6% and 2A Renilla -2.6%.
`COc1ccc(-c2nn3c(=O)cc(CNC(=O)c4ccc(C(C)(C)C)cc4)nc3s2)cc1` gave 2A firefly 0.0% and 2A Renilla -7.2%.
Screening COc1ccc(C2CC(=O)Nc3nc(C)[nH]c(=O)c32)cc1OC (stereo not given) returned 2A firefly -5.6% and 2A Renilla -6.8%.
Screening CCOC(=O)C1CCCN(C(=O)c2[nH]c3ccccc3c2Sc2ccc(Cl)cc2)C1 (stereo not given) returned 2A firefly 15.8% and 2A Renilla 88.4%[activator].
For Cc1ccc2oc(-c3ccc(NC(=O)c4cccc(F)c4)cc3)nc2c1 the results were 2A firefly 159.4%[activator] and 2A Renilla 7.5%.
For COc1ccc2ncc3c(-c4ccc(C)c(C)c4)nn(CC(=O)Nc4ccccc4)c3c2c1 the results were 2A firefly -15.6% and 2A Renilla -17.8%.
Screening CC(C)C(=O)NNC(=O)c1ccc(F)cc1 returned 2A firefly 0.0% and 2A Renilla 72.6%[activator].
Cc1c(C(=O)OCCOc2ccccc2)sc(=S)n1C was read as 2A firefly 206.3%[activator] and 2A Renilla 14.0%.
`Cc1cccc(C(=O)Nc2ccc(OC(=O)c3ccc4c(c3)NC(=O)CCS4)cc2)c1` gave 2A firefly 82.0%[activator] and 2A Renilla -0.5%.
Screening CCC1CCCCN1C(=O)CN1C(=O)N(c2ccc(F)cc2)S(=O)(=O)c2ccccc21 (stereo not given) returned 2A firefly -0.1% and 2A Renilla 29.1%.
For CCCc1cc(=O)oc2c(C)c(OCC(=O)NC3CC(C)(C)NC(C)(C)C3)ccc12 the results were 2A firefly 1.5% and 2A Renilla -5.1%.
`CN(C)CC/C=C1\c2ccccc2Sc2ccc(Cl)cc21` gave 2A firefly -4.7% and 2A Renilla -7.2%.
Screening CCCNC(=O)c1cc2n(n1)CCCN(Cc1ccc(C)cc1)C2=O returned 2A firefly -6.9% and 2A Renilla 31.4%[activator].
For CC(C)CN(C(=O)C1=COCCO1)c1c(N)n(Cc2ccccc2)c(=O)[nH]c1=O the results were 2A firefly 11.5% and 2A Renilla -0.4%.
For Cc1ccc2c(=O)cc(C(=O)NCc3ccccc3)oc2c1 the results were 2A firefly inconclusive and 2A Renilla inconclusive.
COc1ccc(-n2cc(-c3ccc4c(c3)OCO4)n(CC(=O)Nc3cc(Cl)ccc3C)c2=O)cc1 was read as 2A firefly inconclusive and 2A Renilla inconclusive.
`CC(=O)c1c(C)[nH]c(C(=O)C(C)Oc2ccc(C(=O)c3ccc(F)cc3)cc2)c1C` (stereo not given) gave 2A firefly inconclusive and 2A Renilla inconclusive.
O=[N+]([O-])c1ccc(N/N=C/c2cccs2)c(S(=O)(=O)Nc2ccccc2Cl)c1 was read as 2A firefly inconclusive and 2A Renilla inconclusive.
`O=C(CSc1nc2cc(Cl)ccc2s1)NC1CCCCC1` gave 2A firefly 5.3% and 2A Renilla 4.8%.
CC(NC(=S)NNC(=O)CCc1ccccc1)c1ccccc1 (stereo not given) was read as 2A firefly -11.7% and 2A Renilla 8.9%.
For Cc1ccc(C)c(CN2C(=O)c3ccccc3S(=O)(=O)c3ccc(C(=O)N4CCc5ccccc54)cc32)c1 the results were 2A firefly 0.1% and 2A Renilla 34.1%[activator].
For C/C(=N/O)c1cc(C(C)(C)C)cc2c1CCC2(C)C the results were 2A firefly 14.6% and 2A Renilla -7.7%.
For Cc1ccc(-c2noc(-c3ccc(NC4CCCC4)c([N+](=O)[O-])c3)n2)cc1 the results were 2A firefly 69.8%[activator] and 2A Renilla 0.0%.
Screening CC(C)Sc1nc2sc3c(c2c(=O)n1-c1ccccc1)CCCC3 returned 2A firefly 47.2%[activator] and 2A Renilla 29.4%.
For CSc1cccc(NC(=O)c2cccc(C)c2)c1 the results were 2A firefly 195.1%[activator] and 2A Renilla 9.5%.
`CCOC(=O)c1cccc(NC(=O)c2ncoc2-c2ccc(OC)cc2)c1` gave 2A firefly 186.0%[activator] and 2A Renilla 10.1%.
Screening CC(C)CN(Cc1cc2ccccc2[nH]c1=O)C(=O)c1ccco1 returned 2A firefly 12.2% and 2A Renilla -0.5%.
Screening Cc1nc2ccccn2c(=O)c1NC(=O)c1ccc(C(F)(F)F)cc1 returned 2A firefly 77.2%[activator] and 2A Renilla -5.8%.
`CCc1ccc(NC(=O)CC2C(=O)N(c3cccc(C)c3)C(=O)N2Cc2cccs2)cc1` (stereo not given) gave 2A firefly 1.7% and 2A Renilla 89.8%[activator].
`O=C(c1cccs1)N(Cc1cccnc1)c1nc2c(Cl)cccc2s1` gave 2A firefly 19.2% and 2A Renilla -9.6%.
For Fc1ccc(CN(Cc2cccs2)C2CC2)cc1 the results were 2A firefly -2.3% and 2A Renilla 8.4%.

Compounds were not picked by outcome; about 0.55% have a hit in one of these screens.
